From PubChem
Six1-Eya2 blk = Six1/Eya2 interaction inhibition; Q15475+O00167; AlphaScreen GST-Six1/His-Eya2 binding, biochemical; active compounds read low; control for the full effect not named in the record; activity change, % (no concentration beside the values); actives 0.56% (n = 360,000); AID 651725; in the data active = activity change below about -65%; inconclusive = about -30% to -65%; inactive = above about -30%; also: % is scaled to controls: 0 for no effect and ±100 for the full control effect
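Compounds are tested against tagged Six1 and Eya2 proteins bridged by glutathione donor and nickel acceptor beads; after a one-hour incubation at 37 °C without light, AlphaScreen emission is recorded.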
D2 ag = human D2 receptor agonism in beta-arrestin assay; P14416; DiscoveRx PathHunter D2 beta-arrestin, luminescence, 90 min; 100% = 57 uM dopamine signal; activation, % (no concentration beside the values); actives 0.084% (n = 360,000); in the data active = activation above about 40%; inconclusive = about 15% to 40%; inactive = below about 15%; also: compound concentration not given in the record; the text of the record calls up to 30% inactive
Target sequence (P14416 whole entry, looked up): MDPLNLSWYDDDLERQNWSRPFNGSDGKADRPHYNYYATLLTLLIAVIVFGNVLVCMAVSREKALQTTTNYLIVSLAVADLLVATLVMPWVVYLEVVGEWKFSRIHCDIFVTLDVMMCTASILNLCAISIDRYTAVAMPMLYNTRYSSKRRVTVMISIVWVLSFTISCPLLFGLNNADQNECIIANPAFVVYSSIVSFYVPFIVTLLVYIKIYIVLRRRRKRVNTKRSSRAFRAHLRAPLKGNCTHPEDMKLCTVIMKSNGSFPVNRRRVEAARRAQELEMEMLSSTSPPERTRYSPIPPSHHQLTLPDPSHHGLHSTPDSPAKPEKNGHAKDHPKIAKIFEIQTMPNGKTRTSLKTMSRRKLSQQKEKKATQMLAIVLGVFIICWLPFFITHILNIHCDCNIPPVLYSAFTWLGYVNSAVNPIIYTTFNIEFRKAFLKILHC
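DiscoveRx PathHunter D2 beta-arrestin cells (2,100/well) attached overnight, then compound-stimulated 90 min at 37 C in HBSS/10 mM HEPES/0.1% Tween-20 buffer; beta-galactosidase complementation read by luminescence after 1 h at ambient temperature. Dopamine 57 uM final (EC100) as control.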
gsp ag = agonists of gsp mutant (McCune-Albright syndrome). gsp mutant cells, cAMP HTRF, 30 min; control for the full effect not named in the record. actives 0.13% (n = 340,000). Potency, µM (titrated, usually from 76.9 µM), for inactives: at the top dose activation (cAMP increase), actives largely listed as activators; active = well fitted activation curve with a large enough effect; inconclusive = small, poorly fitted or top-dose-only effect, or another doubt; inactive = no such curve, though single readings can be large or run the other way; cell line not stated here;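 also: phosphodiesterase inhibitor Ro 20-1724 added with compounds to block cAMP breakdown; potency is read from the fitted curve at half-maximal effect; nearly all actives have a fitted effect of over 60% in size; about a fifth of the inactives were tested at one dose only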
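Cells stably selected in G418 were plated at 2000/well, grown 16-24 hr, then given compounds in DMSO with the PDE inhibitor […] (300 uM solution added) for 30 min at 37C; cAMP was read by HTRF.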
gsp antagonist = antagonizes gsp, the McCune-Albright syndrome mutation | gsp-mutant cells, cAMP HTRF, 30 min; control for the full effect not named in the record | Potency, µM (titrated, usually from 76.9 µM), for inactives: top-dose activity change, negative = inhibition, most hits filed as inhibitors | actives 0.4% (n = 340,000); active = falling curve of any shape with a large fitted effect; inconclusive = falling curve, mostly with a smaller effect; inactive = flat or rising curve; cell line not stated here;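 also: intracellular cAMP measured with PDE inhibitor Ro 20-1724 present during compound exposure; potency is read from the fitted curve at half-maximal effect; % is scaled to controls: 0 for no effect and ±100 for the full control effect; nearly all actives have a fitted effect of over 65% in size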
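Cells in G418 medium, seeded 16-24 h, 37C; buffer exchange to DPBS + 1 mM CaCl2, 0.5 mM MgCl2, 0.05% BSA; cpds in DMSO + […] (300 uM stock), 30 min 37C; HTRF cAMP detection.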
CtBP-E1A inh = inhibitors of CtBP/E1A interaction; AID 651724; activity change, % (concentration not given with the values); actives 0.49% (n = 340,000); AlphaScreen GST-E1A/His-CtBP binding, 1536-well; active compounds read low; control for the full effect not named in the record; in the data active means activity change below about -65%; inconclusive means about -30% to -65%; inactive means above about -30%; also: % is scaled to controls: 0 for no effect and ±100 for the full control effect
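Homogeneous bead-based format: GST-tagged E1A captured on glutathione donor beads, His-tagged CtBP on nickel acceptor beads; compounds precede bead addition by 2 h at 37 °C.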
D2 PAM = positive allosteric modulators of human D2 dopamine receptor | P14416 | DiscoveRx D2 beta-arrestin cells, luminescence, 90 min; 100% = 57 uM dopamine signal | potentiation, % (test concentration not listed) | actives 0.23% (n = 360,000); active = potentiation of 50% or more; inconclusive = 30% to 50%; inactive = 30% or less;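 also: compound concentration not given in the record; tested on top of an EC20 dose of dopamine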
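D2 cells co-treated with compound plus 50 nM dopamine (EC20) for 90 min at 37 deg C to detect potentiation. Beta-arrestin recruitment was read as enzyme-fragment luminescence after 1 h at ambient temperature. Full response was set by 57 uM dopamine.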
Starred values were filed as active, the others as inactive; ? = inconclusive; nt = no result given; [ ] = dose if it differs, or a comment.

#	canonical_smiles	Six1-Eya2 blk	D2 ag	gsp ag	gsp antagonist	CtBP-E1A inh	D2 PAM
1	CCNC(=O)OCCC12CC3CC(CC(C3)C1)C2	1	1.8	8%	8%	6	-15
2	O=C(c1cccc(Cl)c1)N1CCN(C2CCCCC2)CC1	-9	5.3	-8%	9%	nt	-1
3	CCOc1ccc(NC(=O)CCn2nc(C)c(S(=O)(=O)N3CCCCC3)c2C)cc1	3	-4.4	-47%[inhibitor]	2%	2	-5
4	CN(CC(=O)NCC1COc2ccccc2O1)S(=O)(=O)c1ccc(Cl)cc1 (configuration not stated)	5	-1.9	-66%[inhibitor]	-13%	2	-40
5	CCN(CC(=O)NCc1cccs1)C(=O)CCCOc1ccc(C(C)(C)C)cc1	-4	1.8	-12%	-22%	5	-14
6	Cc1ccc(NC(=O)C2=CC(c3cccs3)=NS(=O)(=O)N2C)cc1	-20	-0.3	-31%[inhibitor]	-2%	-14	-7
7	Cn1nccc1C(=O)Nc1cccc(C(F)(F)F)c1	10	-0.7	-45%[inhibitor]	2%	1	-4
8	CC(C)C[C@H](NC(=O)c1nc[nH]c1C(=O)N1CCC(C)CC1)C(=O)OCc1ccccc1	20	2.6	nt	-7%	23	-3
9	Cc1cccc(-n2c(Cc3cc(=O)[nH]c(=O)[nH]3)nnc2SCC(=O)NCC2CCCO2)c1 (configuration not stated)	-3	-0.4	0%	3%	3	1
10	O=C(COC(=O)Cc1c(Cl)cccc1Cl)Nc1ccc(OC(F)(F)F)cc1	15	0.1	?	13%	13	-1
11	N#C/C(=C\c1ccc(OCc2ccccc2)cc1)C(N)=O	-4	-2.7	-11%[15.4 µM]	-6%	-16	-3
12	O=C(c1cccs1)N1CCN(c2ncc(C(F)(F)F)cc2Cl)CC1	5	-1.3	2%	-19%	14	-3

Next part, starting with the last 5 of the part before.
#	canonical_smiles	Six1-Eya2 blk	D2 ag	gsp ag	gsp antagonist	CtBP-E1A inh	D2 PAM
8	CC(C)C[C@H](NC(=O)c1nc[nH]c1C(=O)N1CCC(C)CC1)C(=O)OCc1ccccc1	20	2.6	nt	-7%	23	-3
9	Cc1cccc(-n2c(Cc3cc(=O)[nH]c(=O)[nH]3)nnc2SCC(=O)NCC2CCCO2)c1 (configuration not stated)	-3	-0.4	0%	3%	3	1
10	O=C(COC(=O)Cc1c(Cl)cccc1Cl)Nc1ccc(OC(F)(F)F)cc1	15	0.1	?	13%	13	-1
11	N#C/C(=C\c1ccc(OCc2ccccc2)cc1)C(N)=O	-4	-2.7	-11%[15.4 µM]	-6%	-16	-3
12	O=C(c1cccs1)N1CCN(c2ncc(C(F)(F)F)cc2Cl)CC1	5	-1.3	2%	-19%	14	-3
13	COC(=O)c1ccccc1NC(=O)CCCOc1cc(=O)n(C)c2ccccc12	-1	-6.7	nt	nt	4	3
14	NC(=O)c1ccccc1OCC(=O)N1CCC(Cc2ccccc2)CC1	3	-2.3	13%	-38%	1	1
15	CC(=O)c1ccc(N2CCN(c3ncccn3)CC2)c([N+](=O)[O-])c1	-8	-1.0	-16%[15.4 µM]	-48%	-3	4
16	O=C(N1CCOCC1)N1CCN(S(=O)(=O)c2ccccc2)C1	2	-1.2	10%	3%	-6	-4
17	O=C(CCNC(=O)c1ccc([N+](=O)[O-])cc1)NC1CCCCC1	6	-1.9	-28%[15.4 µM]	1%	3	-4
18	CN(C)C(=O)CN(c1ccc(F)c(Cl)c1)S(C)(=O)=O	1	0.5	-1%	6%	3	-1
19	COc1ccc(C(=O)N2CCC(C(=O)O)CC2)cc1	5	-1.5	19%	3%	4	-1
20	COc1ccc(-c2n(CC(=O)OC3CC(C)CCC3C(C)C)c3ccccc3[n+]2C)cc1 (configuration not stated)	11	-2.5	-26%[15.4 µM]	10%	0	-13
21	O=C(NCc1cccc(Cl)c1)C1CCC(=O)N(CCCN2CCCC2=O)C1 (configuration not stated)	0	-3.1	?	13%	5	11
22	Cc1cc(C(=O)N2CCCC(N3CCN(c4cccc(Cl)c4)CC3)C2)nc(C)n1 (configuration not stated)	-5	-4.0	11%[15.4 µM]	14%	4	-16
23	N#Cc1ccccc1S(=O)(=O)N1CCN(Cc2cccs2)CC1	0	-0.5	11%	nt	1	-9
24	CC(=O)N1CCN(S(=O)(=O)c2cccc(C(=O)NCCC3=CCCCC3)c2)CC1	0	1.2	-23%	6%	-23	7
25	CC1=C(C(=O)OCc2cc(C)on2)N2C(=O)[C@@H](NC(=O)OCc3cc(C)on3)[C@H]2SC1	-4	-4.1	1%	-5%	3	-7
26	Cc1noc(NS(=O)(=O)c2ccc(NC(=O)NC(C)(C(F)(F)F)C(F)(F)F)cc2)c1C	17	-2.7	-31%[inhibitor]	-9%	nt	-12
27	CC1Cn2c(CCc3ccccc3)nnc2S1 (configuration not stated)	-4	-1.8	-2%	4%	-7	12
28	CC(C)C[C@H](N)c1cn([C@@H](Cc2cc3ccccc3[nH]2)C(=O)N2CCNCC2)nn1	-6	-2.1	nt	-5%	-9	-8
29	CN(C)CCNc1nc2sc3c(c2c(=O)n1-c1ccc(F)cc1)CCCCC3	0	-2.4	4%[15.4 µM]	11%	-3	-11
30	O=C(CCCN1C(=O)/C(=C\c2cccc(Br)c2)SC1=S)Nc1ccc(C(=O)O)cc1	-2	-6.3	8%	nt	-15	-11
31	CCCCN(C(=O)Cn1nnc2ccccc21)C(C(=O)NCCOC)c1ccccc1 (configuration not stated)	4	-1.2	-22%	-8%	-1	-2
32	COc1ccc(CC2NCCC3(O)CCCCC23)cc1 (configuration not stated)	-2	-2.1	0%	-13%	-1	7
33	O=C(CC12CC3CC(CC(Br)(C3)C1)C2)NC1CCCC1	4	-0.5	-2%[15.4 µM]	-9%	9	-3
34	COC1=C(Nc2ccc(O)cc2)C(=O)c2ccccc2C1=O	?	11	8%[15.4 µM]	-9%	?	-6
35	COc1ccc(Nc2oc(-c3ccccc3)nc2C#N)cc1	-5	?	-17%	-20%	-3	6
36	CCN(CC)S(=O)(=O)c1ccc(S(=O)(=O)N2CCCC2)cc1	-2	1.7	9%[15.4 µM]	7%	nt	-4
37	CCc1ccc(NC(=O)C(C)OC(=O)c2ccc(NS(=O)(=O)c3ccc(C)c([N+](=O)[O-])c3)cc2)cc1 (configuration not stated)	0	-5.9	13%	?	-17	0
38	O=C(O)CN1C(=O)c2cccc3c(Br)ccc1c23	2	5.9	-46%[inhibitor]	7%	0	-2
39	Cc1ccc(NS(=O)(=O)c2ccc(C(=O)N3CCCCCC3)cc2)cc1	4	-7.5	25%	-1%	-3	4
40	CC1(C)CC(=O)C(N=Nc2cccc(S(=O)(=O)N3CCOCC3)c2)=C(O)C1	-7	-5.4	?	9%	-5	-16
41	CN(C(=O)CSc1n[nH]c(-c2cccs2)n1)C1CCS(=O)(=O)C1 (configuration not stated)	10	-5.0	-7%[15.4 µM]	13%	14	-1
42	OC1(c2cccc(C(F)(F)F)c2)CCNCC1	1	-3.2	-4%	-6%	6	5
43	O=C1[C@@H]2Cc3c([nH]c4ccccc34)C(c3ccccc3)N2C(=O)CN1CCO (some centres not stated)	-15	-8.1	7%	-3%	2	-9
44	COc1cc(/C=N/NC(=O)c2cccc(NC(=O)c3ccccc3)c2)ccc1O	?	5.4	2%	-4%	?	3
45	COc1ccc(C2CC(c3cccs3)=NN2C(=O)CSc2nc(=O)n3ccc(C)cc3n2)cc1 (configuration not stated)	-17	3.8	5%[15.4 µM]	-8%	0	2
46	Cc1nc(C)c(C(=O)OCC(=O)NCCc2ccc(S(N)(=O)=O)cc2)s1	2	1.3	14%	8%	2	-1
47	CS(=O)(=O)N1CCN(c2ccccc2NC(=O)Nc2cccc(Cl)c2)CC1	1	-4.4	-4%	?	nt	6
48	O=C(O)c1ccc(/C=N/N2CCN(C3c4ccccc4-c4ccccc43)CC2)cc1	1	-2.7	2%	-17%	0	-9

The final four records of the section above are carried over, then new ones follow.
#	canonical_smiles	Six1-Eya2 blk	D2 ag	gsp ag	gsp antagonist	CtBP-E1A inh	D2 PAM
45	COc1ccc(C2CC(c3cccs3)=NN2C(=O)CSc2nc(=O)n3ccc(C)cc3n2)cc1 (configuration not stated)	-17	3.8	5%[15.4 µM]	-8%	0	2
46	Cc1nc(C)c(C(=O)OCC(=O)NCCc2ccc(S(N)(=O)=O)cc2)s1	2	1.3	14%	8%	2	-1
47	CS(=O)(=O)N1CCN(c2ccccc2NC(=O)Nc2cccc(Cl)c2)CC1	1	-4.4	-4%	?	nt	6
48	O=C(O)c1ccc(/C=N/N2CCN(C3c4ccccc4-c4ccccc43)CC2)cc1	1	-2.7	2%	-17%	0	-9
49	CCc1ccccc1NC(=O)N1CCc2ccccc21	5	0.0	-2%	0%	nt	-6
50	O=C1CC(C(=O)Nc2ccccc2)S/C(=N\NC(=O)c2ccccc2Cl)N1 (configuration not stated)	-9	-4.2	0%	6%	nt	-39
51	O=C(NCCCCCNC(=O)c1cccnc1)c1cccnc1	-2	-4.1	-3%	-2%	5	3
52	Cc1cc(OCC(=O)N2CCC(C(=O)O)CC2)c2c(C)cc(=O)oc2c1	8	-4.5	nt	5%	-23	-28
53	Cn1nnc2cc(NC(=O)NCc3ccc4c(c3)OCO4)ccc21	-14	0.0	16%	17%	?	-3
54	Cn1c(=O)c2c(ncn2CCN(CCO)Cc2ccccc2)n(C)c1=O	4	-0.9	?	6%	0	-3
55	O=C(NNC(=O)c1ccccc1O)c1ccc(S(=O)(=O)Nc2ccccc2)cc1	?	-3.8	3%[15.4 µM]	3%	-2	-5
56	N#Cc1cccc(CN2CCC(=O)N([C@H](CO)Cc3ccccc3)CC2)c1	2	-3.5	1%	-2%	5	-9
57	COC(=O)c1ccc(NC(=O)COc2cccc(-n3cnnn3)c2)cc1	1	-2.1	?	2%	0	-2
58	Cc1ccc2nc(N/N=C/c3ccco3)cc(C)c2c1	-10	-5.0	-1%	16%	-15	-8
59	Cc1ccc(-n2nnnc2CNC(=O)C2CC(=O)N(c3ccccc3)C2)cc1C (configuration not stated)	0	-1.7	-14%	-3%	0	-7
60	COc1ccccc1N1CCN(CC(=O)Nc2ccc(CN3CCCCC3)cc2)CC1	-1	12	8%	1%	-6	-9
61	O=C(CNc1ccc2ccccc2c1)N/N=C/c1ccncc1	-2	0.6	?	-10%	2	-14
62	O=S(=O)(c1ccc2c(c1)OCCO2)N1CCC(c2nc3ccccc3[nH]2)CC1	-15	4.3	5%	-21%	-14	5
63	Cc1ccccc1NC(=O)CCS(=O)(=O)c1cccc2nonc12	0	2.8	-8%	6%	9	1
64	COc1cc(NS(=O)(=O)c2cc(C)ccc2OC)c(OC)cc1Cl	-10	-2.2	-47%[inhibitor]	-21%	1	-9
